Source: PubChem BioAssay (several laboratories)
Insulin prom inh – inhibitors of insulin promoter-driven GFP, primary screen, imaging, TRM-6 cells (human fetal islet line), eGFP reporter, cell count; reporter expression induced with tamoxifen; actives 0.9% (n = 130,000); AID 1273, 2008; inhibition, % at 2 µM;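 active means inhibition above the mean plus 3 SD, with well images judged a real hit on visual review, cut at about 60% in these data, passing the limit was not always enough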
RGS16-Gao – modulators of RGS16 binding to Galphao, primary screen, biochemical, human proteins, multiplexed bead flow cytometry; actives 0.38% (n = 220,000); binding response (% of control), % at 10 µM; bead-based flow cytometry RGS16-Galphao binding, fluorescence; actives lie on both sides; Regulator of G-protein signaling 16 (Homo sapiens) + Guanine nucleotide-binding protein …;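 active means below 25% or above 175%, edge rows of some plates excepted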;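 further: Galphao activated by GDP with aluminum fluoride before binding; 100% = wells without compound and 0% = beads without RGS; some results beyond the cut were filed as inactive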
HSV augment – enhancers of HSV replication in host cells, fold increase, host cell viability | HSV replication augmentation in cells | maximum fold increase | actives 0.005% (n = 220,000) | AID 1956, 2009;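 active means peak rise of 1.5-fold or more in the series; tested in PC3 cells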;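 further: first round at 10 µM; read as green reporter fluorescence; hits show the peak of a series up to 25 µM; 1 = signal of infected wells without compound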
GALR2 ag – GALR2 receptor agonists, primary screen, cell-based | Galanin receptor type 2 (Homo sapiens), O43603 | GALR2-expressing cells, agonist activation read-out | activation, %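 (tested at 5 µM)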 | actives 0.48% (n = 140,000) | AID 803, 2007;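 active means above mean plus 3 SD of all compounds, about 5% in these data, not always enough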;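 further: 0% = vehicle buffer wells and 100% = reference agonist at full effect; tested in CHO reporter cells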
PKD1 inh – inhibitors of human PKD1 kinase, biochemical, fluorescence polarization; Serine/threonine-protein kinase D1 (Homo sapiens), Q15139; inhibition, %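 (about 10 µM by stock and volumes)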; PKD1 kinase fluorescence polarization assay; AID 797, 2007; actives 0.056% (n = 200,000);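 active means inhibition of 50% or more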;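 further: controls were vehicle for no effect and a reference inhibitor for full effect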
Target sequence (Q15139 whole entry, looked up): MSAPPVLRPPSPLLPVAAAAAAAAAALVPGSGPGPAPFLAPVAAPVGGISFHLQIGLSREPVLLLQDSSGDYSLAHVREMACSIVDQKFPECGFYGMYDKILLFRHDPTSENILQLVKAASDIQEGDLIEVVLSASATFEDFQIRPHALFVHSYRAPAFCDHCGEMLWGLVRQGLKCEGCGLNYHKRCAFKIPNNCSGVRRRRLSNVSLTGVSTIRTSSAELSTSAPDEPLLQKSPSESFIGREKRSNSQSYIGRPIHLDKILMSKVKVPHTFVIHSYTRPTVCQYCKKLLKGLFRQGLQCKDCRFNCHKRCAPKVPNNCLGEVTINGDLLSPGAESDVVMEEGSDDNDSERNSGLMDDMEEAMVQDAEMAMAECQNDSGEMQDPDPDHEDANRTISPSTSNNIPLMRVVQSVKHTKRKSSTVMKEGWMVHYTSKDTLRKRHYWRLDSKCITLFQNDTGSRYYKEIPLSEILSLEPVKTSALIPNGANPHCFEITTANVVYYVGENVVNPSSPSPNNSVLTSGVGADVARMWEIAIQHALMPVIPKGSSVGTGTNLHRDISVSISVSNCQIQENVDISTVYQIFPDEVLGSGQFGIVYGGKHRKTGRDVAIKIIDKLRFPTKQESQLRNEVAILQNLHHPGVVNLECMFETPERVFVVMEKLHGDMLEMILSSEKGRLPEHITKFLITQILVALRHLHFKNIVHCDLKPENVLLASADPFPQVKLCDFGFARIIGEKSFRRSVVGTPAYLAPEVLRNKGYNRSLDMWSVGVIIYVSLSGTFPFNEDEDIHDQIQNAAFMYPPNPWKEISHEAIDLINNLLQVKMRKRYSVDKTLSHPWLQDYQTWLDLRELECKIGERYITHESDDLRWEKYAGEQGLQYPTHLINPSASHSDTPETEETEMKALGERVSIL
Insulin prom inh cell count – second read-out of Insulin prom inh, no call of its own (marks repeat the call); normalized cell count, %; measured here: cell count, toxicity; reference of the scale not given here;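 cells exposed to compound for 48 h; stained nuclei by imaging scaled within each plate; lower means fewer cells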
HSV augment primary fold – further read-out of HSV augment, marked with its call; fold increase; compound at 10 µM; measured here: primary screen fold increase 10 uM; tested in PC3 cells;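 GFP signal in the first replicate; 1 = infected wells without compound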
* marks the source's active call; other numbers are inactive results; i = inactive; x = not tested or not shown; [ ] = dose if it differs, or a comment. Hits appear at their usual frequency. About 1.1% of those tested had a hit in this group.

Values in the order: Insulin prom inh	Insulin prom inh cell count	RGS16-Gao	HSV augment	HSV augment primary fold	GALR2 ag	PKD1 inh
O=C(Nc1ccc(N2CCOCC2)cc1)C1CCCCN1S(=O)(=O)c1ccccc1 (stereo unspecified)
→ x	x	98	i	1	x	x
CCOc1cc(C2NC(=S)NC(C)=C2C(=O)Nc2ccc(OC)cc2)ccc1O (stereo unspecified)
→ -69	37	112	i	0.95	-1.2	-12
CN(C)C(=O)C[n+]1ccc(/C=N/O)cc1
→ -17	44	107	i	1.1	-1.1	5
COc1cccc(CN2CCCC(C(=O)c3ccc4c(c3)OCO4)C2)c1O (stereo unspecified)
→ x	x	119	i	1.1	x	-6
CCN(CC)S(=O)(=O)c1ccc(NC(=O)C(C)N(c2ccc(OC)cc2)S(C)(=O)=O)cc1 (stereo unspecified)
→ -25	79	107	i	1	0.2	1
O=C(Nc1ccc(N2CCN(Cc3ccccc3)CC2)cc1)c1ccccc1[N+](=O)[O-]
→ x	x	102	i	0.84	x	5
O=C1CN(CC(=O)N2CCCCC2)c2ccccc2O1
→ x	x	98	i	0.95	-2.8	-6
Clc1nc2sccn2c1/C=N/n1cnc2ccccc21
→ x	x	101	i	0.95	1.5	3
CCN(C(=O)c1cc2cccc(OC)c2oc1=O)C1CCCCC1
→ -85	120	223*[activator]	i	0.83	-2.5	2
COc1ccccc1OCC(=O)NCCSCc1ccc(Cl)cc1
→ -5	81	105	i	0.97	-1.7	-9
O=C(CSc1cn(CC(=O)N2CCCC2)c2ccccc12)NCC1CCCO1 (stereo unspecified)
→ -63	73	107	i	0.96	x	5
O=C(NC(=S)Nc1ccccc1N1CCOCC1)c1sc2ccccc2c1Cl
→ -5	96	100	i	0.9	-0.7	-5
COc1ccccc1NC(=O)COc1ccc(/C=N/NS(=O)(=O)c2ccc(C)cc2)cc1
→ 27	120	105	i	1	-1.6	-2
CC(C)CCNC(=O)c1ccc(Cl)c(NC(=O)c2ccccc2F)c1
→ x	x	129	i	0.97	x	-5
CC(C)Oc1ccc(CCNC(=O)CC2C(=O)NCCN2C)cc1 (stereo unspecified)
→ x	x	96	i	0.99	x	x
O=C(NCCCc1nc2ccccc2[nH]1)c1ccc(F)cc1
→ -56	86	104	i	0.91	x	-4
COc1ccccc1NS(=O)(=O)c1cc(NC(=O)CNC(=O)c2ccc(C)s2)ccc1Cl
→ 33	100	75	i	0.96	-0.7	-3
CC(=O)Nn1c(C)nnc1-n1nc(C)cc1C
→ 26	83	96	i	0.98	-1.6	-4
Cc1nc([N+](=O)[O-])cn1CC(O)c1ccc(F)cc1 (stereo unspecified)
→ x	x	99	i	0.89	x	x
COc1ccc(CCNC(=O)CCn2c(=O)oc3ccccc32)cc1
→ x	x	109	i	1.1	-1.4	-1
CCCCNc1ccccc1C(=O)OCC(=O)Nc1ccc(S(N)(=O)=O)cc1
→ -24	73	104	i	0.94	-2.8	-5
CC1CCC(NC(=O)CN2CCCN(Cc3ccc(F)cc3Cl)C2=O)CC1 (stereo unspecified)
→ x	x	104	i	0.89	-2.5	-1
Cc1ccc(NC(=O)c2ccc(=O)[nH]c2)cc1S(=O)(=O)N1CCCCC1
→ x	x	96	i	0.86	x	x
Cc1ccccc1-c1ccc(=O)n(CC(=O)Nc2ccc(-n3cnnn3)cc2)n1
→ x	x	102	i	0.83	x	x
COC(=O)CSc1nnc(-c2ccncc2)o1
→ 5	117	101	i	1.1	0.4	-2
Cc1cccc(NC2=NCC(=O)N2CCc2ccccc2)c1
→ 31	59	101	i	1.1	-1.8	-7
O=C(NC(=S)Nc1ccc2c(c1)OCO2)c1ccccc1
→ 13	121	94	i	0.88	-0.8	1
COc1cccc(-c2cc(C(=O)Nc3ccn(Cc4ccc(C)cc4)n3)no2)c1
→ x	x	104	i	1.1	x	1
CCOC(=O)C1CCN(C(C(=O)NC2CCCCC2)c2ccc(OC)cc2)CC1 (stereo unspecified)
→ x	x	108	i	1.2	-1.0	-2
CC(SCc1ccccc1)C(=O)Nc1ccccc1-c1ccccc1 (stereo unspecified)
→ -46	45	119	i	1	-0.4	-1

Compound profiles (already shown). Order of values: Insulin prom inh, Insulin prom inh cell count, RGS16-Gao, HSV augment, HSV augment primary fold, GALR2 ag, PKD1 inh
`COc1cccc(CN2CCCC(C(=O)c3ccc4c(c3)OCO4)C2)c1O` (stereo unspecified) is listed as x, x, 119, i, 1.1, x, -6
`CCOc1cc(C2NC(=S)NC(C)=C2C(=O)Nc2ccc(OC)cc2)ccc1O` (stereo unspecified) is listed as -69, 37, 112, i, 0.95, -1.2, -12
`O=C(CSc1cn(CC(=O)N2CCCC2)c2ccccc12)NCC1CCCO1` (stereo unspecified) is listed as -63, 73, 107, i, 0.96, x, 5
`COc1ccccc1NS(=O)(=O)c1cc(NC(=O)CNC(=O)c2ccc(C)s2)ccc1Cl` is listed as 33, 100, 75, i, 0.96, -0.7, -3
`CN(C)C(=O)C[n+]1ccc(/C=N/O)cc1` is listed as -17, 44, 107, i, 1.1, -1.1, 5

An excerpt from above in order of the PKD1 inh value, rising:
| canonical_smiles | PKD1 inh |
| --- | --- |
| O=C(NC(=S)Nc1ccccc1N1CCOCC1)c1sc2ccccc2c1Cl | -5 |
| CC(SCc1ccccc1)C(=O)Nc1ccccc1-c1ccccc1 (stereo unspecified) | -1 |
| COc1cccc(-c2cc(C(=O)Nc3ccn(Cc4ccc(C)cc4)n3)no2)c1 | 1 |

An excerpt of these results, field by field:
Cc1nc([N+](=O)[O-])cn1CC(O)c1ccc(F)cc1 (stereo unspecified)
  Insulin prom inh = x; Insulin prom inh cell count = x; RGS16-Gao = 99; HSV augment = i; HSV augment primary fold = 0.89; GALR2 ag = x; PKD1 inh = x
COc1ccc(CCNC(=O)CCn2c(=O)oc3ccccc32)cc1
  Insulin prom inh = x; Insulin prom inh cell count = x; RGS16-Gao = 109; HSV augment = i; HSV augment primary fold = 1.1; GALR2 ag = -1.4; PKD1 inh = -1

Following part:
Values in the order: Insulin prom inh	Insulin prom inh cell count	RGS16-Gao	HSV augment	HSV augment primary fold	GALR2 ag	PKD1 inh
CSc1nnc2c(n1)OC(c1ccc(C(=O)O)cc1)N(C(C)=O)c1ccccc1-2 (stereo unspecified)
→ x	x	101	i	1	-1.9	4
CC1(C)CC(O)CC(C)(C)N1CC(O)COCCOc1ccc(Br)cc1 (stereo unspecified)
→ x	x	105	i	0.94	-3.0	-6
COc1ccc2cc(-c3[nH]ncc3CN3CCCC3c3nonc3C)ccc2c1 (stereo unspecified)
→ x	x	105	i	0.78	x	2
CN(C(=O)COC(=O)c1n[nH]c2ccccc12)C1CCS(=O)(=O)C1 (stereo unspecified)
→ -47	67	100	i	0.93	-0.6	-3
CC(C)CC1C(C#N)=C(N)SC(N)=C1C#N
→ 29	166	76	i	0.75	-0.5	-12
COC(=O)[C@@H]1CC[C@H](C)[C@@H](c2ccc(C)cc2)N1C(=O)c1ccc(/C=N/OC[C@@H](O)COCc2ccco2)cc1
→ -10	107	96	x	x	-0.2	-7
O=c1c(Cl)c(Cl)cnn1Cc1ccccc1Cl
→ i	10	101	x	x	2.1	0
COc1ccc(N2CCN(Cc3nnc(-c4ccccc4)o3)CC2)cc1
→ x	x	107	i	1.2	-0.9	-1
COC(=O)c1sc(-c2ccc(C(C)(C)C)cc2)cc1NC(=O)CCC(=O)O
→ x	x	117	i	0.83	x	x
CC(=O)NC(Cc1cccc(F)c1)C(=O)NC1CCN(c2nnnn2-c2ccccc2)CC1 (stereo unspecified)
→ 26	95	113	i	1	x	1
COC(=O)[C@@]1(Cc2ccc(F)cc2)[C@H]2c3cc(C(=O)N(C)C)n(Cc4nc5ccccc5[nH]4)c3C[C@H]2CN1C(=O)c1ccccc1
→ 32	112	104	i	0.96	-1.7	-3
CCOC(=O)N1CCN(C(=O)c2cc3c(ccc4ccccc43)oc2=O)CC1
→ x	x	118	i	0.85	-3.0	12
Cc1c(Br)c([N+](=O)[O-])nn1CC(=O)Nc1sc2c(c1C(=O)OC(C)C)CCCC2
→ -9	159	102	i	1.1	-0.9	-10
Cn1cnc([N+](=O)[O-])c1NC(C)(C)C
→ 38	63	110	i	0.98	-0.3	0
CC(C)(C)CC(=O)O/N=C(\N)c1ccncc1
→ x	x	102	i	0.95	x	-6
CCN1C(=O)CCCc2ccccc21
→ 47	89	101	i	0.92	x	3
CCSc1nnc(-c2ccc(Cl)cc2Cl)o1
→ -79	107	102	i	1.1	-0.6	10
COc1cccc(N/C=C/C(=O)c2ccc(Cl)cc2)c1
→ -40	105	66	i	1	0.4	4
Cc1cccc(C(C)C)c1NC(=O)COC(=O)c1cccc(S(=O)(=O)N2CCc3ccccc3C2)c1
→ 21	144	110	i	0.71	2.8	-12
CCN(CC)S(=O)(=O)c1cc(C(=O)OCC(=O)Nc2cccc(Br)c2)ccc1F
→ 29	107	102	i	0.94	-2.1	-10
O=C(CC1NCCNC1=O)Nc1ccc(Cl)c(Cl)c1 (stereo unspecified)
→ 56	129	100	i	0.85	-0.7	10
CCC(C)(NC(=O)c1ccc2c(c1)OCO2)C(=O)NC1CCCCC1 (stereo unspecified)
→ -20	124	97	i	0.94	x	0
O=C(NCCCCCCNC(=O)C1CCCC1)C1CCCC1
→ -230	61	50	i	0.9	-1.1	4
O=C(c1cc2cc(Br)ccc2s1)N1CCOCC1
→ x	x	97	i	0.88	x	-1
S=c1[nH]nc(CSCc2ccc(Cl)cc2Cl)n1-c1ccccc1
→ 16	84	87	i	0.88	0.4	-2
Cc1ccc(NC(=O)COC(=O)c2cc(Cl)ccc2[N+](=O)[O-])c(C)c1
→ 0	119	109	i	0.94	0.3	8
CCn1nc(C)c(NC(=O)Nc2cccc(Cl)c2Cl)c1C
→ x	x	102	i	1.2	x	1
COc1ccccc1N(CC(=O)Nc1ccc(C(F)(F)F)cc1)S(C)(=O)=O
→ x	x	98	i	0.89	x	-11
CCOc1ccc(-c2nnc3ccc(SCC(=O)NCc4ccco4)nn23)cc1
→ x	x	101	i	0.86	-1.9	2
O=C(O)c1ccc(OCCOc2ccccc2)cc1
→ x	x	102	i	1.1	x	x

RGS16-Gao: what is marked active above.
canonical_smiles	RGS16-Gao	HSV augment primary fold	GALR2 ag	PKD1 inh
CCN(C(=O)c1cc2cccc(OC)c2oc1=O)C1CCCCC1	223*[activator]	0.83	-2.5	2

(further entries)
Values in the order: Insulin prom inh	Insulin prom inh cell count	RGS16-Gao	HSV augment	HSV augment primary fold	GALR2 ag	PKD1 inh
Cc1c(C(=O)N/N=C/c2ccccc2)[nH]c2c([N+](=O)[O-])cccc12
→ x	x	102	i	0.79	x	x
CSc1n[nH]c2nc3c(c(=O)n12)C1(CCCC1)Cc1ccccc1-3
→ 32	70	41	i	0.9	0.8	-7
Cc1ccc(C2(CC(=O)N3CCCC3)CCOC(C(C)C)C2)cc1 (stereo unspecified)
→ -69	122	105	i	0.98	-1.5	-1
C#CC[N+]1(CC#Cc2ccccc2)CCCCC1
→ 0	116	102	i	0.95	x	0
O=C(NC(=S)Nc1ccc(CN2CCOCC2)cc1)c1ccc([N+](=O)[O-])cc1Cl
→ x	x	100	i	0.89	x	1
CC/C(=N\NC(=S)NC(C)C)c1ccc(OC)c(OC)c1
→ 0	107	95	i	0.88	x	1
O=C(c1ccc(C(F)(F)F)cc1)c1c[nH]c(C(=O)NCCCn2ccnc2)c1
→ -22	131	102	i	0.76	-2.5	-5
O=C(N/N=C/C=C/c1ccccc1)c1ccccn1
→ x	x	86	i	0.86	x	x
Cc1nn(C)c(C)c1C(=O)NN
→ 29	97	101	i	1.1	-3.3	0
Fc1ccc(C(c2nnnn2C2CCCC2)N2CCN(Cc3ccncc3)CC2)cc1 (stereo unspecified)
→ -32	136	100	i	0.99	-1.0	-3
